# hNpr1 antagonist: antagonists of human natriuretic peptide receptor Npr1 | HEK293 hNpr1 GloSensor cGMP, ANP-stimulated luminescence | Potency, µM (doses to about 46.3 µM), without a hit: top-dose activity change, negative = inhibition, hits mostly inhibitors | actives 1.6% (n = 76,000) | AID 1347048; active = well fitted inhibition curve with a large enough effect; inconclusive = small, poorly fitted or top-dose-only effect; inactive = no such curve, though single readings can be large or run the other way;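 further: nearly all actives have a fitted effect of over 60% in size; nearly all hits also lower the signal before the agonist is added; a reference antagonist and vehicle were the controls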
# Target sequence (P16066 whole entry, looked up): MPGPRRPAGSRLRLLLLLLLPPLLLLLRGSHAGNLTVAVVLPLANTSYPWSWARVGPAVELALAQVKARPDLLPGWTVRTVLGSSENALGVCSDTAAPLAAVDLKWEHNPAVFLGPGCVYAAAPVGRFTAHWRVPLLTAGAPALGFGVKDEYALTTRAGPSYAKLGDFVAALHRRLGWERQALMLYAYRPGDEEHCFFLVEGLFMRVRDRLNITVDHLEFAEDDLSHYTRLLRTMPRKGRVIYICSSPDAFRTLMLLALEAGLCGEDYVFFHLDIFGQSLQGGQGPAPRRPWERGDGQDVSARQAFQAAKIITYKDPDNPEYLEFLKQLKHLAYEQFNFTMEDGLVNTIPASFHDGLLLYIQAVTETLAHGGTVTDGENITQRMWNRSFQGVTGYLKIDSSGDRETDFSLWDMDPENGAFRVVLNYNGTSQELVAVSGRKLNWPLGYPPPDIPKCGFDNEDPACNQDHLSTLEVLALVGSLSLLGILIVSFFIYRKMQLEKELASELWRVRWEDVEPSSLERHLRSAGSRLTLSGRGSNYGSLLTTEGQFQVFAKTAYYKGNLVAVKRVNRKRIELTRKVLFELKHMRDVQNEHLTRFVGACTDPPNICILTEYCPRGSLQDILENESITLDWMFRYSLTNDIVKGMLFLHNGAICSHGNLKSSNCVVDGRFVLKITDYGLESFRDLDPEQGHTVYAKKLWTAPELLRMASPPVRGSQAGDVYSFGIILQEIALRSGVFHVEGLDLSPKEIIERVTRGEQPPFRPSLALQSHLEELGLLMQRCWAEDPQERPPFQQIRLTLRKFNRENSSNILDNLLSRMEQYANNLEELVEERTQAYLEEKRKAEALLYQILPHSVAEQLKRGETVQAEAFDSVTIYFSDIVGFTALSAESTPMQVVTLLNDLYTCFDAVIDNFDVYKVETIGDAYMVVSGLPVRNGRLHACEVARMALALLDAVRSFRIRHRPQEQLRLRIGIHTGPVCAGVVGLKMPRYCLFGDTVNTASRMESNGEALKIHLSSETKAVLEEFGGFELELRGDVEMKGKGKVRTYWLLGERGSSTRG
#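 Compound pre-incubated 30 min at room temperature on GloSensor-loaded HEK293 cells stably carrying hNpr1 and the pGS-40F cGMP biosensor. Stimulation uses hNppA at 0.1 nM final; luminescence is taken at baseline and 20 min post-agonist.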
# Starred values were filed as active, the others as inactive; ? = inconclusive; [ ] = dose if it differs, or a comment. On the % scale 0 is the no-effect control and ±100 the full control effect; potency means the concentration at half of the fitted maximal effect. Only part of the results is shown, so the mix of outcomes need not match the whole.
SMILES,hNpr1 antagonist
Cc1ncccc1C(=O)N1CC[C@@H]2COCCN(Cc3ccncc3)[C@@H]2C1,0%
COc1ccc(Cl)cc1NC(=O)Cn1c(N2CCC(C)CC2)nc(C)cc1=O,11µM*
COCCN1C(=O)c2ccccc2C(C(=O)Nc2ccc(C(N)=O)cc2)C12CCCCC2 (configuration not stated),-6%
COCCNC(=O)C1CCN(C(=O)c2nnn3c2COC(c2ccc(C)cc2)C3)CC1 (configuration not stated),-2%
Cc1cc(CNC(=O)C2CC(=O)N(C(C)(C)C)C2)n(C)n1 (configuration not stated),-2%
CCOC(=O)C1CCN(C(=O)c2ccc3c(c2)N(CC)C2CCCCCN2C3=O)CC1 (configuration not stated),?
O=C1C(N2CCN(S(=O)(=O)c3cccc(Cl)c3)CC2)CCN1Cc1cccnc1 (configuration not stated),-13%
CNC(=O)CC1C(=O)NCCN1CC(=O)Nc1cc(OC)cc(OC)c1 (configuration not stated),-1%
CN(C)CCNC(=O)c1cc(-c2ccc(F)cc2)cc2ncn(C)c12,4%[70.6 µM]
Cc1cc(C(F)(F)F)nn1CC(=O)N1CCCC(c2[nH]ccc2C(N)=O)C1 (configuration not stated),0%
COCCN1C(=O)CS(=O)(=O)C12CCN(C(=O)COc1ccc(Cl)cc1)CC2,-13%
COCC(=O)NC1CCC12CCN(C(=O)CCCc1ccccc1)CC2 (configuration not stated),-1%
C=CCn1cc(CN2CCOC(Cc3cccc(OC)c3)C2)c(C)n1 (configuration not stated),7%
Cc1cccc(NC(=O)Nc2ccc(C)n(CC(=O)NCc3ccccc3Cl)c2=O)c1,6%
COc1ccc(-c2cc(C(=O)NCc3cc(C)on3)c3c(c2)N(C)CCO3)cn1,-3%[70.6 µM]
O=C(COc1ccccc1)Nc1ccc([C@@H](O)[C@H]2COCC(=O)N2CCCc2ccccc2)cc1,4%
CCCS(=O)(=O)N1C[C@@H](Oc2ccccc2)C[C@H]1C(=O)NCCOC,1%
Cc1ccc(N2CCC(NC(=O)c3ccc(C)cc3C)C2=O)cc1 (configuration not stated),1%
CCN(CC)C1CCOC2(CCN(C(=O)c3ccncc3)CC2)C1 (configuration not stated),0%
O=C(c1cc(F)ccc1F)N1CCC2(CC1)NC(=O)N(Cc1ccc(F)cc1)C2=O,-16%
COc1ccc(Cn2c(C3CCN(C(=O)c4cccc(Cl)c4)CC3)n[nH]c2=O)cc1,2%
COc1ccc(Cn2c(C(C)NC(=O)OCc3ccccc3)nc3cccnc32)cc1 (configuration not stated),14%
CC(C)Cc1nc(CN(C)C(=O)C2CCOc3ccccc3C2)no1 (configuration not stated),-5%
COc1ccc(-c2cnc([C@@H]3COCCN3Cc3cn(C)c4ccccc34)[nH]2)cc1,?
COCCNC(=O)C1(CCO)CCN(Cc2ccccc2)C1 (configuration not stated),-4%

# Continued:
SMILES,hNpr1 antagonist
COc1cccc(C(=O)N2CCC3(CCNCC3)CC2)c1C,4%
COc1ccc(-c2onc(C)c2C(=O)NCc2cccc(OC)c2)cc1,-2%
CC1=C[C@@H](CNCc2ccc(C#N)cc2)[C@H](C(C)C)C[C@H]1Cc1nnc(C(C)(C)C)o1,-22%[70.6 µM]
CC(=O)N1CCC(C(=O)N2CCCCCCNC(=O)[C@@H]3CCCC[C@@H]32)CC1,-1%
Cc1ccc(-c2nc(C(=O)NCc3cc(F)cc(F)c3)no2)cc1,5%
COc1ccc(N2CC(C(=O)NCCN3CCOC3=O)CC2=O)cc1Cl (configuration not stated),3%
COc1ccc(-c2noc(Nc3cc(C)cc(C)c3)n2)cc1,-10%
CC1(C)OC(=O)N(CC(=O)N2CCC(Cc3noc(C4CC4)n3)CC2)C1=O,-5%
Cc1ccc(-c2nc(C(=O)N3CCN(c4cccc(C)c4)CC3)no2)cc1,4%
CC(=O)c1ccc(NC(=O)O[C@@H]2CO[C@H]3[C@@H]2OC[C@@H]3n2cc(-c3ccccc3)nn2)cc1,5%[70.6 µM]
COC(=O)[C@@H]1Cc2c([nH]c3ccccc23)[C@H]2C[C@@H](NCCCn3ccnc3)C[C@@H](c3ccccc3F)N21,-25%
Cc1ccccc1NC(=O)c1cnc2c(c1)N(C(=O)Cc1ccc(C(C)C)cc1)CCC2,?
Cc1nc(C(C)C)cc(N2CCN(c3ccccc3O)CC2)n1,-8%
c1ccc(-c2nc3ncccc3[nH]2)cc1,0%[70.6 µM]
CC(=O)N1CCC(N2CCC[C@H]2c2nc(-c3ccc(-n4ccnc4)nc3)no2)CC1,-2%[70.6 µM]
O=C(NCc1ccc(F)cc1)C1COC2(CCN(C(=O)c3ccco3)CC2)N1C(=O)c1ccccc1 (configuration not stated),2%
CN1C[C@@H](NC(=O)COc2ccccc2)C[C@H]1c1nc(-c2ccc3c(c2)OCO3)no1,-16%[70.6 µM]
COc1ccc(S(=O)(=O)N2CCC(n3cnnc3-c3ccccc3)CC2)cc1Cl,?
COc1ccc(CN2C(=O)O[C@@H]3CN(Cc4cnc(C)[nH]4)C[C@@H]32)cc1OC,3%
Cc1ccc(C(=O)NC2CCN(c3cc(-c4cccs4)[nH]n3)C2)c(C)c1 (configuration not stated),-2%
O=C(Nc1ccc(Cl)cc1)N1CCN(c2nc3ncccc3o2)CC1,-10%
CN(C)CCNC(=O)c1nc2nc(-c3ccccc3)c(-c3ccc(O)c(F)c3)cc2n1C,22µM*
COc1ccc(C(=O)N2CCC(c3n[nH]c(=O)n3-c3ccc(C)cc3)CC2)c(OC)n1,-2%
CC1CCC(NC(=O)c2cc3n(n2)CC(c2ccc(Cl)cc2)OC3)CC1 (configuration not stated),-27%
Cc1cnn(Cc2c(C(=O)N3C[C@@H](C(N)=O)[C@H](c4nc(C)no4)C3)noc2C)c1,2%

# (continued)
SMILES,hNpr1 antagonist
O=[S+]1([O-])NCC2(CCCN(CC3CC3)C2)Nc2ccccc21 (configuration not stated),0%[70.6 µM]
Cc1noc(C)c1CC(=O)NCCc1noc(-c2ccccc2)n1,0%
Cc1nc2ccc(C(=O)N3C[C@@H]4CCN(C)C[C@]4(C(=O)O)C3)cc2s1,0%
CCOc1ccccc1C(=O)N1CC[C@@H]2CN(S(C)(=O)=O)[C@@H]2C1,-4%
COc1ccc(-c2noc(NCCN(C)C3CCCCC3)n2)cc1,-4%
COCCNC(=O)[C@@H]1Cc2cn(Cc3nccn3C)c3cccc(c23)[C@H](CC(C)C)N1,4%[70.6 µM]
CCOC(=O)N1CCC(COc2ccc3c(cnn3CCC(=O)O)c2)CC1,1%[70.6 µM]
CCC(=O)N1CCc2sc(C(=O)NC3CCCCCC3)cc2C1,5%
C[C@@H]1CN(C(=O)c2cnc3sccn3c2=O)C[C@@]1(O)C1CCC1,3%
COc1ccc(CN2C=C(C(=O)OCc3nc(C4CCCCC4)no3)C(C)=NS2(=O)=O)cc1,?
COc1ccc(NC(=O)Cn2c(C)cc3nc4n(c(=O)c32)CCCC4)cc1OC,-11%
CCc1cnc(N2CCC(COc3ccc4c(cnn4CC[S+](C)(=O)[O-])c3)CC2)nc1,8.9µM*
CC(C)c1noc(-c2cn(C3CCCN(C(=O)c4ccc[nH]4)C3)nn2)n1 (configuration not stated),-21%
CN(C)C[C@@H]1CN(Cc2cccnc2)C[C@H]1NC(=O)c1cc2ccccc2[nH]1,-7%
CC(=O)N1CCCC2(C1)C(=NC1CCCC1)NC(=O)N2c1cc(F)cc(F)c1 (configuration not stated),8%
Cc1ccc(CCNC(=O)c2nnn3cc(C)[nH]c(=O)c23)cc1,-5%
CC(C)c1nc2c(c(-c3ccc(O)cc3)n1)CN(Cc1ccc(C(F)(F)F)cc1)CC2,2%
O=C(Nc1ccccc1)C1=NO[C@@H]2CN(Cc3ccc(O)c(Cl)c3)C[C@H]12,?
O=C(Nc1cccc2ccccc12)O[C@@H]1CO[C@H]2[C@@H]1OC[C@@H]2NS(=O)(=O)c1cccc2cccnc12,-3%
COc1cccc(C(=O)N2CC(C(=O)NCCc3ccncc3)C3(CCOCC3)C2)c1 (configuration not stated),4%
Cc1ccccc1NC(=O)c1cc2n(n1)CC(c1ccc(Cl)cc1)OC2 (configuration not stated),?
Cc1ccc(N2C[C@]34C=C[C@H](O3)C(C(=O)N(C)Cc3nccs3)C4C2=O)cc1C (some centres not stated),-1%
CCc1noc(-c2cn(C3CCN(C(=O)c4ccc(C)s4)C3)nn2)n1 (configuration not stated),?
O=C(c1ccc(F)cc1)N1CCC2(CC1)CC(c1cccnc1)=NO2,28%[70.6 µM]
Cc1cc(C(=O)N2CCOC[C@H](Oc3cnccn3)C2)n(C)n1,0%[70.6 µM]

# Other compounds follow.
SMILES,hNpr1 antagonist
O[C@@H]1CC(CNCc2ccc(F)cc2)(COc2cccnc2)C[C@@H]1O (some centres not stated),0%[70.6 µM]
CCOc1ccccc1NC(=O)Nc1cccc(-c2ccc(N3CCCC3)nn2)c1,-24%
CCCc1noc(-c2cn(C3CCN(C(=O)c4ccc(F)cc4)CC3)nn2)n1,-2%
Cc1ccc(CN2C(=O)[C@@H]3C[C@@H](O)CN3C3(CN(CC4CC4)C3)C2=O)o1,-2%[70.6 µM]
Cc1nnc2n1CCC(NC(=O)Cc1c[nH]c3ccccc13)CC2 (configuration not stated),0%
COc1ccc(CCNC(=O)c2c(C)noc2-c2ccc(C(C)(C)C)cc2)cc1OC,-19%
c1ccc(Cn2cnc3cccnc32)cc1,0%[70.6 µM]
CC(C)c1ccc(OCc2nc3c(n2Cc2ccccc2)C(=O)N(CC2CCOCC2)CCN3)cc1,4%
COCc1nc(C2CC(N)C2)cc(N2CCN(S(=O)(=O)N(C)C)CC2)n1 (configuration not stated),4%
CN(C)c1ncc2c(n1)C(C)(C(=O)Nc1cccc(F)c1)CCC2 (configuration not stated),-14%[70.6 µM]
C[C@@H](N)C(=O)N1CCC(n2nccc2NC(=O)Nc2ccccc2Cl)CC1,2%
CS(=O)(=O)c1ccc(CN2C[C@H](O)C[C@H]2c2nc(-c3cnccn3)no2)cc1,0%[70.6 µM]
Cc1cc(C2CCCCN2C(=O)Nc2cccc(-c3csc(C)n3)c2)no1 (configuration not stated),-4%
CC(CCc1ccccc1)NC(=O)CN1C(=O)C(c2ccccc2)=NC1(C)C (configuration not stated),-2%
CN(C)c1cccc(-c2cnc(NC(=O)C3CCOCC3)c3c2CCO3)c1,-2%[70.6 µM]
CC(=O)NC1(C)CCN(Cc2cnc(-c3cccc(F)c3)s2)CC1,?
O=C1C(OCC2CC2)C2(CCCCC2)N1C1CCNCC1 (configuration not stated),4%
Cc1nn(Cc2ccccc2)c(C)c1[C@@H]1C=C[C@@H](NC(=O)NC(C)C)C1,-5%[70.6 µM]
Cc1cnc(CN(C)C(=O)CC(c2ccccc2)c2ccc3c(c2)OCO3)[nH]1 (configuration not stated),-15%
CCCC1(C2CCN(C(=O)Cc3ccc(OC)cc3)CC2)NC(=O)N(CCc2cccs2)C1=O (configuration not stated),-3%
CC(C)CN1C(=O)c2cccn2CC1C(=O)NC1CCN(Cc2ccccc2)CC1 (configuration not stated),-8%
CCOCCOc1cccc(C(=O)N2CCC3(CCNCC3)CC2)c1,-5%
CCn1cc(C(=O)NC(C)C(=O)Nc2ccc(C)cc2F)c(C)n1 (configuration not stated),2%
O=C(O)C[C@@H]1CCN(C(=O)c2ccc(F)cc2)C[C@@H]1CCN1CCN(c2ccc(F)cc2)CC1,-1%
COc1ccccc1[C@@H]1CN(C(=O)c2ccc3cccnc3c2)C[C@H]1C(=O)O,4%
O=C(NC1CCN(c2cc(-c3ccccc3)[nH]n2)CC1)c1cccc(Cl)c1,0%
CC(C)(O)C#Cc1ccc(C(=O)N2CCOCC2CC(=O)O)o1 (configuration not stated),-1%
Cc1ccc(Cn2c(C3CCN(C(=O)c4ccc(C#N)cc4)CC3)n[nH]c2=O)cc1,5%
Cc1noc(-c2ccccc2OC2CCNC2)n1 (configuration not stated),7%
O=c1n(-c2cccc(Cl)c2)nc2n1CCN([S+](=O)([O-])c1cccc(C(F)(F)F)c1)C2,0%

# By substructure: the compounds so far with fluorine (17)
SMILES,hNpr1 antagonist
CN(C)CCNC(=O)c1cc(-c2ccc(F)cc2)cc2ncn(C)c12,4%[70.6 µM]
Cc1cc(C(F)(F)F)nn1CC(=O)N1CCCC(c2[nH]ccc2C(N)=O)C1 (configuration not stated),0%
O=C(c1cc(F)ccc1F)N1CCC2(CC1)NC(=O)N(Cc1ccc(F)cc1)C2=O,-16%
Cc1ccc(-c2nc(C(=O)NCc3cc(F)cc(F)c3)no2)cc1,5%
COC(=O)[C@@H]1Cc2c([nH]c3ccccc23)[C@H]2C[C@@H](NCCCn3ccnc3)C[C@@H](c3ccccc3F)N21,-25%
O=C(NCc1ccc(F)cc1)C1COC2(CCN(C(=O)c3ccco3)CC2)N1C(=O)c1ccccc1 (configuration not stated),2%
CN(C)CCNC(=O)c1nc2nc(-c3ccccc3)c(-c3ccc(O)c(F)c3)cc2n1C,22µM*
CC(=O)N1CCCC2(C1)C(=NC1CCCC1)NC(=O)N2c1cc(F)cc(F)c1 (configuration not stated),8%
CC(C)c1nc2c(c(-c3ccc(O)cc3)n1)CN(Cc1ccc(C(F)(F)F)cc1)CC2,2%
O=C(c1ccc(F)cc1)N1CCC2(CC1)CC(c1cccnc1)=NO2,28%[70.6 µM]
O[C@@H]1CC(CNCc2ccc(F)cc2)(COc2cccnc2)C[C@@H]1O (some centres not stated),0%[70.6 µM]
CCCc1noc(-c2cn(C3CCN(C(=O)c4ccc(F)cc4)CC3)nn2)n1,-2%
CN(C)c1ncc2c(n1)C(C)(C(=O)Nc1cccc(F)c1)CCC2 (configuration not stated),-14%[70.6 µM]
CC(=O)NC1(C)CCN(Cc2cnc(-c3cccc(F)c3)s2)CC1,?
CCn1cc(C(=O)NC(C)C(=O)Nc2ccc(C)cc2F)c(C)n1 (configuration not stated),2%
O=C(O)C[C@@H]1CCN(C(=O)c2ccc(F)cc2)C[C@@H]1CCN1CCN(c2ccc(F)cc2)CC1,-1%
O=c1n(-c2cccc(Cl)c2)nc2n1CCN([S+](=O)([O-])c1cccc(C(F)(F)F)c1)C2,0%

# Assay outcomes: PubChem BioAssay, National Center for Advancing Translational Sciences (NCATS)
